Source: PubChem BioAssay (Broad Institute)
Env fusion inh: inhibitors of HIV-1 Env-driven cell-cell fusion, primary screen, HeLa-JRFL effector, CEM21 target cells, luciferase; inhibition, % at 12.3 µM; hit rate 1.1% among 360,000;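 active = mean replicate inhibition score of at least 50 and every replicate individually at or above 50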;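 note: 0% = plate neutral controls and 100% = maraviroc near 300 nM; one replicate is shown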
UUG fidelity: modulators of yeast start codon fidelity, primary screen, whole organism, S. cerevisiae, single point, plate reader; activity score, % at 18.7 µM; AID 602363, 2012; S. cerevisiae UUG-firefly luciferase reporter, luminescence/redox ratio; hit rate 0.13% among 350,000;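 active = replicate mean at a twofold rise or more, about +100% in these data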;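 note: firefly luciferase made from a UUG start codon reports start codon fidelity; reporter light over untreated wells divided by growth signal over untreated wells; some hits fall short of that in this replicate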
* hit, by the source's call; [ ] = dose if it differs, or a comment. Not all compounds are listed; the hit share may differ from the screen's.

SMILES	Env fusion inh	UUG fidelity
C[C@H]1CN([C@@H](C)CO)S(=O)(=O)c2ccc(C3=CCCC3)cc2O[C@@H]1CN(C)C(=O)CC1CC1	-11.3[16.7 µM]	14.6
O=C(C[C@H]1C=C[C@@H](NC(=O)C2CC2)[C@H](CO)O1)NCc1ccccc1Cl	12.0[16.7 µM]	-1.8
COCC#Cc1ccc2c(c1)O[C@H](CN(C)C(=O)NC(C)C)[C@H](C)CN([C@@H](C)CO)S2(=O)=O	-10.3[16.7 µM]	12.0
C[C@@H]1CN([C@H](C)CO)C(=O)c2cccc(NC(=O)c3ccc(-c4nccs4)cc3)c2O[C@H]1CN(C)S(=O)(=O)c1cccs1	-96.0[16.7 µM]	11.8
C[C@H](CO)N1C[C@H](C)[C@H](CN(C)S(=O)(=O)c2ccc(Cl)cc2)Oc2ccc(NS(=O)(=O)c3cccs3)cc2CC1=O	22.3[16.7 µM]	2.7
C[C@@H]1CN([C@@H](C)CO)S(=O)(=O)c2ccc(C#Cc3ccccn3)cc2O[C@@H]1CN(C)Cc1ccc(F)cc1	-15.6[16.7 µM]	16.7
CN(C)CC(=O)N[C@H]1CC[C@H](CCNC(=O)C2CCCCC2)O[C@H]1CO	-245.4[16.7 µM]	-1.5
CCCN(C)C[C@H]1OCCCC[C@@H](C)Oc2ccc(NC(=O)Nc3ccc(OC)cc3)cc2C(=O)N([C@@H](C)CO)C[C@H]1C	0.3[16.7 µM]	24.1
N#C[C@@H]1[C@H](c2ccc(C3=CCCCC3)cc2)[C@@H](CO)N1C(=O)NC1CCCCC1	20.1[16.7 µM]	2.4
C[C@H]1CN([C@@H](C)CO)C(=O)c2cc(-c3cccnc3)cnc2O[C@@H]1CN(C)C(=O)C1CCC1	-3.9[16.7 µM]	-15.9
C[C@@H]1CN([C@H](C)CO)C(=O)c2cccc(NC(=O)Nc3ccc(F)cc3)c2O[C@@H]1CN(C)CC1CCCCC1	-32.7[16.7 µM]	0.9
C[C@@H]1CCCCO[C@H](CN(C)C(=O)NC2CCCCC2)[C@@H](C)CN([C@@H](C)CO)C(=O)c2cc(NS(=O)(=O)c3ccccc3)ccc2O1	19.6[16.7 µM]	11.2
C[C@@H](NC(=O)C[C@H]1CC[C@@H](NC(=O)CN2CCOCC2)[C@H](CO)O1)c1ccccc1	-7.9[16.7 µM]	-11.4
C[C@H](CO)N1C[C@H](C)[C@H](CN(C)Cc2ccc3c(c2)OCO3)OCCCC[C@H](C)Oc2ccc(NC(=O)Nc3cccc4ccccc34)cc2C1=O	38.1[16.7 µM]	-7.8
C[C@@H]1CCCCO[C@H](CN(C)C(=O)Nc2ccccc2)[C@H](C)CN([C@@H](C)CO)C(=O)c2cc(NC(=O)Nc3cccc4ccccc34)ccc2O1	-8.1[16.7 µM]	2.3
C[C@@H]1CN([C@@H](C)CO)C(=O)Cc2cc(NC(=O)Nc3ccccc3)ccc2O[C@H]1CN(C)S(=O)(=O)c1ccccc1	-6.0[16.7 µM]	-2.4
O=C(C[C@H]1CC[C@@H](NS(=O)(=O)c2ccccc2)[C@H](CO)O1)NCc1ccc(Cl)c(Cl)c1	-2.5[16.7 µM]	8.9
COc1cccc(C#Cc2ccc([C@@H]3[C@@H](C#N)N(C(=O)C4CCC4)[C@@H]3CO)cc2)c1	-4.5[16.7 µM]	-5.4
C[C@@H]1CCCCO[C@H](CN(C)C(=O)Nc2ccc3c(c2)OCO3)[C@H](C)CN([C@H](C)CO)C(=O)c2cc(NC(=O)Nc3ccc(F)cc3)ccc2O1	-2.7[16.7 µM]	2.9
C[C@H](CO)N1C[C@H](C)[C@@H](CN(C)S(=O)(=O)c2cccs2)Oc2ccc(NC(=O)CCC(F)(F)F)cc2CC1=O	-3.8[16.7 µM]	7.5
C[C@H](CO)N1C[C@H](C)[C@@H](CN(C)S(=O)(=O)c2ccc(Cl)cc2)Oc2ccc(NS(=O)(=O)c3ccc(Cl)cc3)cc2C1=O	-50.7[16.7 µM]	-4.6
C[C@@H]1CCCCO[C@H](CN(C)C(=O)NC2CCCCC2)[C@H](C)CN([C@@H](C)CO)C(=O)c2cc(NS(=O)(=O)c3ccc(F)cc3)ccc2O1	-56.8[16.7 µM]	0.0
CCC(=O)Nc1ccc2c(c1)OC[C@@H](C)NC[C@H](C)[C@@H](OC)CN(C)C2=O	-27.1[16.7 µM]	-7.1
C[C@@H]1CN([C@@H](C)CO)C(=O)c2cc(NS(=O)(=O)c3ccccc3)ccc2O[C@@H](C)CCCCO[C@@H]1CN(C)S(=O)(=O)c1cn(C)cn1	-12.5[16.7 µM]	2.1
C[C@@H]1CN([C@@H](C)CO)C(=O)c2cc(NS(=O)(=O)c3ccccc3)ccc2O[C@@H](C)CCCCO[C@H]1CN(C)S(=O)(=O)c1cn(C)cn1	-46.4[16.7 µM]	1.8
O=C(NCC[C@@H]1CC[C@H](NC(=O)c2ccc3c(c2)OCO3)[C@H](CO)O1)Nc1cc(F)ccc1F	2.7[16.7 µM]	-10.4
CC12N=C3SCC(=O)N3[C@H](c3ccccc3O1)[C@H]2CO[Si](C)(C)C(C)(C)C	8.0[16.7 µM]	11.8
C[C@@H]1CCCCO[C@@H](CN(C)Cc2ccncc2)[C@H](C)CN([C@H](C)CO)C(=O)c2cc(NC(=O)Nc3ccc4c(c3)OCO4)ccc2O1	-20.7[16.7 µM]	-8.6
O=C(C[C@@H]1C=C[C@H](NC(=O)Nc2ccc3c(c2)OCO3)[C@@H](CO)O1)NCc1ccc2c(c1)OCO2	7.9[16.7 µM]	1.7
CC(C)C#Cc1ccc2c(c1)O[C@@H](CN(C)Cc1ccncc1)[C@@H](C)CN([C@@H](C)CO)S2(=O)=O	-15.4[16.7 µM]	29.6
C[C@@H]1CN([C@H](C)CO)C(=O)Cc2cc(NC(=O)C3CC3)ccc2O[C@@H]1CN(C)C(=O)Nc1ccc(F)cc1	9.5[16.7 µM]	16.7
C[C@@H]1CN([C@@H](C)CO)S(=O)(=O)c2ccc(-c3cccc(C#N)c3)cc2O[C@H]1CN(C)C(=O)c1ccccc1	-1.2[16.7 µM]	-4.3
COc1ccc(S(=O)(=O)N[C@H]2C=C[C@H](CC(=O)NCCc3ccccc3)O[C@@H]2CO)cc1	32.5[16.7 µM]	-3.5
CCCC#Cc1ccc([C@H]2[C@H](C#N)N(C(=O)CN3CCOCC3)[C@H]2CO)cc1	-13.9[16.7 µM]	5.8
O=C(NCC[C@@H]1CC[C@H](NC(=O)C2CCCC2)[C@H](CO)O1)c1ccc(F)cc1	-14.3[16.7 µM]	-7.8
C[C@@H]1CN([C@@H](C)CO)C(=O)c2cc(C#CC3(O)CCCC3)cnc2O[C@@H]1CN(C)Cc1cncnc1	-13.1[16.7 µM]	12.7

Fetched one by one from the list above (six):
SMILES	Env fusion inh	UUG fidelity
C[C@@H]1CN([C@@H](C)CO)C(=O)c2cc(C#CC3(O)CCCC3)cnc2O[C@@H]1CN(C)Cc1cncnc1	-13.1[16.7 µM]	12.7
C[C@@H]1CN([C@@H](C)CO)C(=O)c2cc(NS(=O)(=O)c3ccccc3)ccc2O[C@@H](C)CCCCO[C@H]1CN(C)S(=O)(=O)c1cn(C)cn1	-46.4[16.7 µM]	1.8
COc1ccc(S(=O)(=O)N[C@H]2C=C[C@H](CC(=O)NCCc3ccccc3)O[C@@H]2CO)cc1	32.5[16.7 µM]	-3.5
CCCC#Cc1ccc([C@H]2[C@H](C#N)N(C(=O)CN3CCOCC3)[C@H]2CO)cc1	-13.9[16.7 µM]	5.8
O=C(NCC[C@@H]1CC[C@H](NC(=O)C2CCCC2)[C@H](CO)O1)c1ccc(F)cc1	-14.3[16.7 µM]	-7.8
CC(C)C#Cc1ccc2c(c1)O[C@@H](CN(C)Cc1ccncc1)[C@@H](C)CN([C@@H](C)CO)S2(=O)=O	-15.4[16.7 µM]	29.6

(continued)
SMILES	Env fusion inh	UUG fidelity
C[C@H](CO)N1C[C@H](C)[C@@H](CN(C)CC2CCCCC2)Oc2ccc(NC(=O)CCC(F)(F)F)cc2C1=O	-0.5[16.7 µM]	-0.1
C[C@H](CO)N1C[C@H](C)[C@@H](CN(C)Cc2ccccc2)Oc2ccc(NC(=O)Cc3ccccc3)cc2CC1=O	28.4[16.7 µM]	0.0
C[C@@H]1CN([C@@H](C)CO)C(=O)c2cccc(NC(=O)C3CCCCC3)c2O[C@H]1CN(C)Cc1ccc(-c2ccccc2)cc1	-43.3[16.7 µM]	1.7
CC(C)NC(=O)N[C@H]1C=C[C@H](CC(=O)NCCCN(C)C)O[C@@H]1CO	-12.7[16.7 µM]	-10.5
O=C(C[C@@H]1CC[C@@H](NC(=O)Nc2ccc(F)cc2)[C@@H](CO)O1)NCc1ccccn1	7.3[16.7 µM]	-5.0
C[C@@H]1CN([C@H](C)CO)S(=O)(=O)c2ccc(/C=C/c3ccccc3)cc2O[C@H]1CN(C)Cc1ccc(C(=O)O)cc1	2.4[16.7 µM]	7.8
O=C(N1CCCCC1)[C@@]1(Cc2ccccc2)COC(c2ccc(OCCCO)cc2)=N1	3.8[16.7 µM]	7.6
NCC[C@H]1CC[C@H](NS(=O)(=O)c2ccc(Cl)cc2)[C@H](CO)O1	-0.5[16.7 µM]	10.3
Cc1ccc(S(=O)(=O)N[C@@H]2CC[C@H](CCNC(=O)C3CC3)O[C@H]2CO)cc1	-10.2[16.7 µM]	-0.6
O=C(C[C@@H]1C[C@H]2c3cc(NC(=O)C4CCOCC4)ccc3O[C@H]2[C@H](CO)O1)NC1CCCCC1	16.0[16.7 µM]	5.1
C[C@@H]1CN([C@H](C)CO)C(=O)c2cc(C#Cc3ccccc3F)cnc2O[C@H]1CN(C)S(C)(=O)=O	23.2[16.7 µM]	-4.8
CC(=O)N(C)C[C@H]1Oc2ncc(-c3ccccc3F)cc2C(=O)N([C@@H](C)CO)C[C@@H]1C	-24.2[16.7 µM]	-1.9
O=C(N[C@@H]1CC[C@H](CCNS(=O)(=O)c2ccc(F)cc2)O[C@H]1CO)C1CCCC1	-23.5[16.7 µM]	5.7
C[C@H]1CCCCO[C@H](CN(C)C(=O)Nc2ccc(F)cc2)[C@@H](C)CN([C@@H](C)CO)C(=O)c2cc(NS(=O)(=O)c3cccs3)ccc2O1	26.5[16.7 µM]	-28.4
CN1C(=O)c2cc(NC(=O)Cc3cccs3)ccc2OC[C@H]2O[C@@H](CC(=O)NCC3CC3)CC[C@@H]21	1.3[16.7 µM]	3.4
COCC#Cc1ccc2c(c1)O[C@@H](CN(C)C(=O)c1ccccc1)[C@@H](C)CN([C@@H](C)CO)S2(=O)=O	6.2[16.7 µM]	0.6
C[C@@H]1CN([C@H](C)CO)C(=O)Cc2cc(N(C)C)ccc2O[C@@H]1CN(C)Cc1ccc(C(F)(F)F)cc1	16.4[16.7 µM]	1.4
C[C@@H]1CCCCO[C@H](CN(C)S(=O)(=O)c2ccc(Cl)cc2)[C@@H](C)CN([C@@H](C)CO)C(=O)c2cc(NC(=O)CCCN(C)C)ccc2O1	-17.8[16.7 µM]	10.3
Cc1noc(C)c1NC(=O)Nc1ccc2c(c1)C(=O)N([C@H](C)CO)C[C@@H](C)[C@H](CN(C)S(=O)(=O)c1c(C)noc1C)OCCCC[C@H](C)O2	26.0[16.7 µM]	24.3
CC(C)C(=O)Nc1ccc2c(c1)C(=O)N(C)[C@@H]1CC[C@@H](CC(=O)NCc3ccccc3F)O[C@H]1CO2	-2.6[16.7 µM]	22.1
C[C@H](CO)N1C[C@H](C)[C@H](CN(C)Cc2ccc(Cl)c(Cl)c2)Oc2ccc(NC(=O)Nc3ccc(C(F)(F)F)cc3)cc2CC1=O	41.1[16.7 µM]	1.5
C[C@H](CO)N1C[C@H](C)[C@H](CN(C)C(=O)c2ccncc2)Oc2cc(C#CC3(O)CCCC3)ccc2S1(=O)=O	-12.0[16.7 µM]	-13.5
C[C@@H]1CN([C@@H](C)CO)S(=O)(=O)c2ccc(C#CCN(C)C)cc2O[C@@H]1CN(C)C(=O)C1CCC1	-23.1[16.7 µM]	-5.2
C=CCN1C(=O)[C@@]2(O[C@@H](CCn3cc([C@H](O)c4ccccc4)nn3)[C@H]([Si](C)(C)c3ccc(OC)cc3)[C@H]2C)c2ccccc21	-3.1[16.7 µM]	-10.1
CCCN1C[C@@H](C)[C@H](OC)CN(C)C(=O)c2ccc(NC(=O)c3cccc(OC)c3)cc2OC[C@H]1C	10.8[16.7 µM]	7.3
C[C@@H]1CN([C@H](C)CO)C(=O)Cc2cc(NS(=O)(=O)c3cn(C)cn3)ccc2O[C@H]1CN(C)S(=O)(=O)c1ccccc1	-7.6[16.7 µM]	-12.1
C[C@@H]1CCCCO[C@@H](CN(C)C(=O)Cc2ccccc2)[C@@H](C)CN([C@@H](C)CO)C(=O)c2cc(NC(=O)Nc3ccccc3)ccc2O1	-33.8[16.7 µM]	3.7
C[C@H](CO)N1C[C@H](C)[C@H](CN(C)C)Oc2cc(C#C[C@@H](C)O)ccc2S1(=O)=O	9.1[16.7 µM]	-22.5
COCCNC(=O)C[C@@H]1C[C@@H]2c3cc(NC(=O)Nc4ccc(F)cc4)ccc3O[C@@H]2[C@H](CO)O1	-15.3[16.7 µM]	-19.1
C[C@H](O)C#Cc1ccc2c(c1)O[C@@H](CN(C)C(=O)CC1CC1)[C@H](C)CN([C@H](C)CO)S2(=O)=O	-25.3[16.7 µM]	-2.6
C[C@@H]1CN([C@@H](C)CO)C(=O)c2cc(C#C[C@@H](C)O)cnc2O[C@H]1CN(C)Cc1cccc(F)c1	4.1[16.7 µM]	-1.3
Cc1noc(C)c1NC(=O)Nc1cccc2c1O[C@H](CN(C)Cc1ccc3c(c1)OCO3)[C@H](C)CN([C@@H](C)CO)C2=O	-23.6[16.7 µM]	3.0
Cc1ccccc1S(=O)(=O)N1C[C@@H](O)COC[C@@H]2O[C@H](CC(=O)N3CCN(C)CC3)CC[C@H]21	9.5[16.7 µM]	-7.9
C[C@@H]1CN([C@@H](C)CO)C(=O)Cc2cc(NC(=O)Cn3cnnn3)ccc2O[C@H]1CN(C)CC1CCCCC1	-1.5[16.7 µM]	-6.4
